# HNF4A DNA FP = change in binding of human HNF4 alpha to DNA | P41235 | activity change, % at 10 µM | HNF4a-FITC DNA binding, fluorescence polarization, 1 h | actives 0.3% (n = 360,000) | AID 1224865; in the data active means activity change above about 30%, passing the limit was not always enough;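 further: controls were the assay level and a saturating level of protein; the project sought stronger binding though the title names inhibitors; some compounds called inactive have numbers as strong as hits; positive values seem to mean higher polarization but the record does not say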
# E coli growth = blocks Escherichia coli growth | OD600, 23 h; active compounds read low | OD600 absorbance (concentration not given with the values) | actives 0.21% (n = 330,000) | AID 1053175;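 active means OD600 absorbance below the run mean of sample wells minus 3.6 SD, in any replicate, cut at about 0.56 in these data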;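 further: stock transfer was 300 nL into about 60 µL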
# LANA-H2B inh = blocks KSHV LANA binding to histone H2A/H2B. Q9QR71. cell-free LANA-H2A/H2B peptide, fluorescence polarization. inhibition, % (test concentration not listed). actives 0.6% (n = 320,000); in the data active means inhibition mostly above about 10%, no sharp cut-off; inactive means mostly below about 6.7%;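 further: stock transfer was 7.5 nL into about 10 µL; 0% = median of vehicle wells and 100% = median of positive control wells; one replicate is shown; the record names a cut of 25% in any replicate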
# Bfl-1 A1 inh = inhibitors of the anti-apoptotic protein A1, read as caspase activation. MEF A1-2A-BIM cells, Caspase-Glo 3/7 luminescence, 3 h; percent of clofoctol response, vehicle zero. caspase activation, % (test concentration not listed). actives 0.066% (n = 330,000). AID 2462;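 active means over half of replicate activation scores above 10%, or exactly half above 10 with the replicate mean above 10; inconclusive means replicate mean below 10 yet half the replicates above 10; inactive means over half of replicates below 10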;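 further: wells of about 30 µL received 50 nL stock; many hits fall short of the cut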
# UCH37 DUB inh = human UCH37 deubiquitinating enzyme inhibition; purified proteasome/UCH37, Ub-AMC cleavage fluorescence; Q9Y5K5; inhibition, % (test concentration not listed); actives 0.33% (n = 330,000); AID 588478;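 active means mean of two replicates above 20%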;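 further: 0% = compound-free wells with enzyme and 100% = wells lacking proteasome; stock transfer was 100 nL into about 20 µL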
# Target sequence (Q9Y5K5 whole entry, looked up): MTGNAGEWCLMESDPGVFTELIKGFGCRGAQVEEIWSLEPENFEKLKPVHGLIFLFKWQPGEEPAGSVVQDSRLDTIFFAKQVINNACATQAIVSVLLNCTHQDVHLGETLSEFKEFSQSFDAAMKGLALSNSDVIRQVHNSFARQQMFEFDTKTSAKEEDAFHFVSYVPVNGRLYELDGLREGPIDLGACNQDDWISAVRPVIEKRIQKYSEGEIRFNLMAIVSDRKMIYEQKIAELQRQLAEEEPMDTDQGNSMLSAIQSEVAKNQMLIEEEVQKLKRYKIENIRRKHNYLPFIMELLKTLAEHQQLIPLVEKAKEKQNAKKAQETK
#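 Material: human UCH37 enzyme supplied as purified proteasome complex / Amount: 0.15 nM proteasome as dispensed / Buffer or medium: pH 7.4 Tris-HCl (50 mM) with ovalbumin, ATP-MgCl2, DTT / Times: preincubation 30 min, reaction 25 min, room temperature / Technique: AMC fluorescence from Ub-AMC cleavage, excitation 355 nm, emission 460 nm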
# B2AR ag = agonists of human beta-2 adrenergic receptor inducing internalization. Am2.2-beta2AR cells, FAP receptor internalization, flow cytometry; reference of the scale not given here. response, % (test concentration not listed). actives 0.43% (n = 340,000). AID 504454;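 active means response above a set limit, near 3 SD of response in nonfluorescent compounds, cut at about 42% in these data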;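 further: stock transfer was 100 nL into about 11 µL; a reference agonist was the positive control; negative values mostly stem from fluorescent compounds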
# Target sequence (P07550 whole entry, looked up): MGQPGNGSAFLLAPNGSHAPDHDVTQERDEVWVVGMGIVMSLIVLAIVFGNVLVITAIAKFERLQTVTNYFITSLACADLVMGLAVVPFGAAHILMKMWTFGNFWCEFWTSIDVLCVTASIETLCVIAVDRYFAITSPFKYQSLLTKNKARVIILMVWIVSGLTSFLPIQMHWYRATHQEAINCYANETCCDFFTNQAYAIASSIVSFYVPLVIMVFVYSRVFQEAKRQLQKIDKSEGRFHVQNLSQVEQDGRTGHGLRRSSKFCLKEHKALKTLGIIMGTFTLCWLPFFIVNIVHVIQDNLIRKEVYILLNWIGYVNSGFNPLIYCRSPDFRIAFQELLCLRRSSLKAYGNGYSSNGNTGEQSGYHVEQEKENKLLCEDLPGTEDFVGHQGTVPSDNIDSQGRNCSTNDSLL
# Vif TR-FRET = inhibitors of Vif binding to APOBEC3G peptide, primary screen, biochemical, TR-FRET, GST-Vif 1-94, biotin-A3G peptide, dose response retest (AID 1117319); TR-FRET GST-Vif / biotin-A3G peptide binding; higher % means a stronger effect; test concentration not given here; strong numbers were not always called active; one-dose inhibition, %; IC50 in µM for titrated hits; actives 0.57% (n = 260,000);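 active means above the screen mean plus three standard deviations and confirmed in dose response; inconclusive means results disagree or hit not tested in dose response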;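 further: Vif residues 1-94 fused to GST binding biotinylated APOBEC3G peptide 110-148; 0% = full assay without inhibitor and 100% = GST in place of GST-Vif; retest series ran down from 100 µM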
# Active calls of the source: *; ? = inconclusive; · = not tested or not shown. Compounds as they come; any-hit rate near 2.1%.
nr	SMILES	HNF4A DNA FP	B2AR ag	UCH37 DUB inh	E coli growth	LANA-H2B inh	Bfl-1 A1 inh	Vif TR-FRET
1	COc1ccc(C(=O)CSc2nnc(CNC(=O)c3ccc(OC)cc3)n2C)cc1	0.7	-5	3.3	0.71	4.4	-0.4	5%
2	COC(=O)c1ccc2c(=O)n(-c3ccccc3)c(SCN3C(=O)c4ccccc4C3=O)nc2c1	2.7	-16	-1.0	0.71	1.2	1.5	-22%
3	O=c1c(Cl)c(N2CCN(c3ccccc3)CC2)cnn1C12CC3CC(CC(C3)C1)C2	0.9	4	7.0	0.69	-0.4	0.9	3%
4	O=C(NCc1ccco1)/C(=C\c1ccco1)NC(=O)c1ccccc1Cl	0.1	-2	3.1	0.67	1.8	0.6	3%
5	Cc1ccc(N/C=C/C(=O)c2ccco2)c(O)c1	8.8	3	5.6	0.66	7.8	-5.2	-1%
6	O=S(=O)(Nc1ccccc1C(F)(F)F)c1ccc(-c2ccccn2)s1	-0.1	3	4.0	0.68	3.0	-0.9	-15%
7	O=C(Nc1ccccc1)c1ccc(CN2CCC(Cc3ccccc3)CC2)cc1	-1.3	-3	2.3	0.71	-3.1	0.3	-2%
8	Cc1nn(-c2cccc(Cl)c2)nc1C(=O)Nc1cccc(C(=O)NC2CC2)c1	-0.6	16	-4.9	0.68	-4.8	-0.3	-8%
9	Cc1ccc(NC(=O)CC2S/C(=N/c3nccs3)N(C)C2=O)cc1C (stereo unspecified)	0.3	1	·	·	6.2	-0.1	-6%
10	O=C(Nc1cccc(NC(=O)c2ccc(-c3ccc(Br)cc3)o2)c1)c1ccco1	-0.3	11	-11	0.74	2.5	-0.4	-2%
11	Cc1ccc2cc(CN(CCCN3CCOCC3)C(=O)NC3CCCCC3)c(=O)[nH]c2c1C	5.8	-8	-6.9	0.66	2.6	1.2	-2%
12	O=c1c2[nH]c3ccc(Br)cc3c2ncn1Cc1ccncc1	·	·	1.0	0.67	-9.2	1.0	22%
13	Cc1cc(C)n2nc(C(=O)Nc3cccc(S(=O)(=O)N(C)c4ccccc4)c3)nc2n1	1.1	75*	-0.8	0.66	0.9	1.4	·
14	COC(=O)[C@H](Cc1ccccc1)NC(=O)NC(C)CCc1ccccc1 (stereo partly specified)	-0.1	30	1.3	0.64	3.3	0.4	0%
15	COC(C[C@@H](O)CC(=O)COCc1ccccc1)OC	-7.6	-4	0.9	·	·	·	1%
16	CC1(c2ccccc2Br)NC(=O)N(CC(=O)Nc2ccc(S(N)(=O)=O)cc2)C1=O (stereo unspecified)	2.1	-1	0.4	0.7	7.1	0.0	·
17	CCOc1ccc(NC(=O)CN(C)C(=O)c2cccnc2Sc2ccc(Cl)cc2)cc1OCC	1.8	-7	2.6	0.72	1.0	0.6	-8%
18	CCOC(=O)C1(CCOc2ccccc2)CCN(Cc2ccc(OC)cc2)CC1	-0.8	3	·	·	6.2	-0.5	2%
19	Cc1ccc(NC(=O)CSc2n[nH]c(-c3ccco3)n2)cc1	-2.5	1	2.4	0.69	-9.0	0.1	1%
20	CC(C)(C)c1ccc(Oc2ccc(NC(=O)C3CC=CCC3C(=O)O)cc2)cc1 (stereo unspecified)	0.8	2	7.4	0.64	-1.0	0.2	1%
21	O=C(O)/C=C/C(=O)Nc1ccc(S(=O)(=O)Nc2nccs2)cc1	2.5	4	1.5	·	-14	1.3	·
22	COc1ccc(C(CCNCc2ccccc2F)c2ccc(F)cc2)cc1 (stereo unspecified)	0.9	26	-1.3	0.67	-3.7	0.1	?
23	COc1ccc(C(=O)NCc2nnc(SCC(=O)N3CCCCCC3)o2)cc1OC	-2.2	0	1.1	0.71	-3.8	0.8	·
24	COc1ccc(CCN2CC(C(=O)N(C)C3CCOCC3)CCC2=O)cc1 (stereo unspecified)	1.8	1	2.9	0.7	-0.4	-0.3	·
25	Cc1ccc(C(=O)N/N=C\c2cccnc2)s1	-4.1	0	·	·	-1.0	-0.1	·
26	COc1cc2nc(CN3CCN(C(c4ccccc4)c4ccccc4)CC3)[nH]c(=O)c2cc1OC	·	·	2.2	0.71	-6.1	-0.4	31%
27	O=C(O)Cc1ccc2ocnc2c1	0.3	3	1.3	0.71	-1.3	1.1	-1%
28	COc1ccc(N2CCN(C(=O)c3ccccc3)CC2)c([N+](=O)[O-])c1	-0.5	2	2.9	0.69	-6.3	1.3	-7%
29	CCCC(=O)Nc1nnc(/C=C/c2ccccc2)s1	2.1	-3	-91	0.71	3.9	-1.6	·
30	Cc1cccc(OCc2nnc(SCC(=O)Nc3sc(C)c(C)c3C#N)n2C)c1	-1.1	1	1.9	0.75	4.0	0.5	-4%
31	CC12CCC(C(=O)CC1=O)C2(C)C (stereo unspecified)	-6.0	-3	·	·	·	·	3%
32	O=C(Nc1cccc(S(=O)(=O)N2CCCCCC2)c1)C1CC(=O)N(c2ccc3c(c2)OCCO3)C1 (stereo unspecified)	-1.2	-1	1.3	0.65	-3.2	1.5	-5%
33	COc1ccc(S(=O)(=O)NC(C)C(=O)Nc2ccccc2C(F)(F)F)cc1 (stereo unspecified)	-2.8	5	1.9	0.72	-2.7	-0.3	3%
34	OC1(c2ccccc2Cl)NN=C2CCCCCN21 (stereo unspecified)	2.3	13	3.7	0.65	4.1	0.6	-4%
35	COc1ccc(CN2CC(C(=O)NCc3ccc4c(c3)OCO4)CC2=O)cc1 (stereo unspecified)	2.1	1	4.7	0.67	7.7	-0.3	7%
36	COc1cccc(-n2c(=O)c3cc(OC)c(OC)cc3n(CC(=O)Nc3cc(C)[nH]n3)c2=O)c1	-0.2	10	-16	0.69	2.3	0.5	·
37	CC(C)NS(=O)(=O)c1ccc(CCC(=O)N2CCOCC2)cc1	-0.8	0	2.8	0.72	-7.2	-0.3	0%
38	COCCNC(=O)CSc1ccccc1C(=O)NCC1CCCCC1	-0.1	-6	3.7	0.66	-1.6	2.1	7%
39	COC(=O)c1cccc(-c2noc(-c3ccccc3F)n2)c1	-2.6	-3	-0.2	0.73	-3.6	-9.9	·
40	Cc1cc(O)ccc1N/C=C/c1onc(C)c1[N+](=O)[O-]	-1.7	1	3.7	0.7	0.1	-7.7	4%
41	COc1ccc(N(C)S(=O)(=O)c2cccc(C(=O)NCC(c3ccco3)N3CCCC3)c2)cc1 (stereo unspecified)	1.3	0	2.5	0.67	-3.4	1.0	·
42	CCCCCC(=O)NCC(C)NC(=O)CCCCC (stereo unspecified)	-0.1	0	1.1	0.62	-1.5	0.4	·
43	CCn1c(SCC(=O)Nc2ccc3c(c2)OCCO3)nnc1-c1cccnc1	2.8	11	-0.5	0.63	-5.1	1.1	·
44	Cc1ccsc1C1Nc2ccccc2C(=O)N1O (stereo unspecified)	2.3	-2	-0.2	0.68	-0.4	-1.7	-6%
45	O=C(O)c1ccc(N2C(=O)/C(=C/c3ccc(-c4ccc([N+](=O)[O-])cc4)o3)C=C2c2ccccc2)cc1	-34	-195	5.7	·	-1.7	-0.5	29%
46	C[C@H](CO)N1C[C@H](C)[C@@H](CN(C)Cc2ccccc2)Oc2c(NC(=O)Cc3ccccc3)cccc2C1=O	-0.9	3	4.7	·	1.2	0.3	·
47	C#CCn1c2ccccc2c2nc3ccccc3nc21	-0.7	3	-12	0.67	-0.3	-0.1	·
48	CCOc1ccc(CCNC(=O)c2cc(C)nn2-c2ccccc2)cc1	6.2	-5	5.9	0.7	-2.5	0.3	-3%
49	CCN(CC)C(=O)c1[nH]cnc1C(=O)N[C@@H](C)c1ccccc1	1.1	5	0.8	·	-2.4	0.5	·
50	CCOc1ccc(C(C(=O)NCCOC)N(CCOC)C(=O)CCC(=O)Nc2ccccn2)cc1 (stereo unspecified)	-4.8	-3	1.8	0.69	-5.9	-0.2	·
51	COC(=O)C1=C(C)N(C)C(=O)NC1c1cc2c(cc1Br)OCO2 (stereo unspecified)	-0.8	-1	1.0	0.64	0.9	0.3	·
52	CCCCc1ccc(S(=O)(=O)NNC(=S)NCc2ccco2)cc1	0.7	-1	·	·	-0.6	-0.1	-2%
53	CCNC(=O)CSc1nnc(-c2cc(-c3ccc(Cl)cc3)nc3ccccc23)o1	3.9	-8	-4.6	0.65	1.1	0.2	0%
54	CN(C)c1cc2c3ccccc3n(C)c2cc1N	3.5	14	-178	0.68	·	·	11%
55	CC(C)C1N(C(=O)N(C)C)CCN1S(=O)(=O)c1ccccc1 (stereo unspecified)	3.0	-11	2.4	0.68	1.3	0.0	·
56	CCO/C(C)=N/n1c2nc3ccccc3nc2c2c(=O)n(Cc3ccccc3Cl)c(C)nc21	11	-25	·	·	-2.1	1.3	1%
57	CC(C)N1CCC(=NNc2ccc(S(=O)(=O)N3CCOCC3)cc2[N+](=O)[O-])CC1	-3.0	17	6.3	0.65	5.2	0.5	6%
58	CCC(=O)NC(=S)Nc1ccc(S(=O)(=O)N2CCN(C)CC2)cc1	1.9	12	3.9	0.72	2.2	-0.6	-5%
59	COc1ccccc1C(CNC(=O)c1cccc(S(=O)(=O)N2CCCc3ccccc32)c1)N(C)C (stereo unspecified)	3.9	6	0.1	0.66	·	·	·
60	C[C@]12CCC(=O)C[C@@H]1CC[C@@H]1[C@@H]2CC[C@]2(C)C=CC[C@@H]12	-1.2	7	0.8	·	2.4	0.1	10%

# (continued)
nr	SMILES	HNF4A DNA FP	B2AR ag	UCH37 DUB inh	E coli growth	LANA-H2B inh	Bfl-1 A1 inh	Vif TR-FRET
61	O=C(Nc1cccc(S(=O)(=O)NC2=NCCC2)c1)c1cc(=O)[nH]c2ccccc12	1.6	8	-4.1	0.71	0.1	0.9	-8%
62	CC(C)(C)c1ccccc1OCC(=O)Nc1ncn[nH]1	5.8	-2	1.0	0.71	0.1	?	21%
63	Cc1c(NC(=O)NC(C)N2C(=O)C3C4C=CC(C4)C3C2=O)c(=O)n(-c2ccccc2)n1C (stereo unspecified)	-3.6	3	4.5	0.73	1.3	-0.1	2%
64	N#CCCn1cc(C(=O)CN2C(=O)C(=O)N(C3CCCC3)C2=O)c2ccccc21	-3.2	-4	3.2	0.64	·	·	-14%
65	CN(Cc1ccc(F)cc1)C(=O)c1cccc(S(=O)(=O)NCc2ccccc2)c1	-2.8	-5	0.7	0.65	2.7	0.1	-1%
66	O=[N+]([O-])c1ccccc1-c1ccc(CN2CCN(c3ccccc3)CC2)o1	-1.6	-3	1.5	0.66	1.6	-0.5	·
67	c1ccc(CSc2nnc(-c3sccc3-n3cccc3)o2)cc1	-2.5	-8	-1.1	0.75	-0.6	1.4	7%
68	CCOC(=O)C1(Cc2cccc(F)c2)CCN(C(=O)c2cscn2)CC1	-0.7	-7	1.8	0.72	4.2	-0.1	-2%
69	COc1ccc(NC(=O)Oc2cc(C)ccc2C(C)C)cc1	0.7	3	-0.9	0.68	-0.9	2.7	-1%
70	O=S(=O)(c1cccs1)N1CN(Cc2ccccc2)c2nc3ccccc3nc21	3.2	-17	-3.6	0.72	1.9	0.6	-5%
71	O=C(O)c1nn(CCOc2cccc(Br)c2)c(=O)c2ccccc12	3.5	2	3.2	0.67	2.4	-2.8	·
72	Cc1ccccc1NC(=O)Cc1nc(CCl)cs1	-1.4	-6	-0.4	0.7	-1.2	1.2	·
73	CC(CNC(=O)c1ccc(OC2CCN(Cc3ccccn3)CC2)cc1)c1ccccc1 (stereo unspecified)	3.2	-9	·	·	0.3	1.9	·
74	Cc1nc(-c2cccc(S(=O)(=O)N3CCCCC3)c2)cs1	3.2	0	2.7	0.64	-4.9	0.1	4%

# Screening results (PubChem)
